Screening data: PubChem BioAssay, several laboratories
RecA splice inh = Mtb RecA intein splicing inhibitors, primary screen, biochemical, fluorescence, HTS | Protein RecA (Mycobacterium tuberculosis (strain ATCC 25618 / H37Rv)), P9WHJ3 | cell-free RecA intein splicing | inhibition, %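 (about 9 µM by stock and volumes)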 | hit rate 0.75% among 290,000 | AID 2221, 2009; in the data active = inhibition above about 30%; inconclusive = no clear call, values can overlap the other calls;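 also: 0% = vehicle wells and 100% = reference inhibitor control wells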
Target sequence (P9WHJ3 whole entry, looked up, canonical isoform): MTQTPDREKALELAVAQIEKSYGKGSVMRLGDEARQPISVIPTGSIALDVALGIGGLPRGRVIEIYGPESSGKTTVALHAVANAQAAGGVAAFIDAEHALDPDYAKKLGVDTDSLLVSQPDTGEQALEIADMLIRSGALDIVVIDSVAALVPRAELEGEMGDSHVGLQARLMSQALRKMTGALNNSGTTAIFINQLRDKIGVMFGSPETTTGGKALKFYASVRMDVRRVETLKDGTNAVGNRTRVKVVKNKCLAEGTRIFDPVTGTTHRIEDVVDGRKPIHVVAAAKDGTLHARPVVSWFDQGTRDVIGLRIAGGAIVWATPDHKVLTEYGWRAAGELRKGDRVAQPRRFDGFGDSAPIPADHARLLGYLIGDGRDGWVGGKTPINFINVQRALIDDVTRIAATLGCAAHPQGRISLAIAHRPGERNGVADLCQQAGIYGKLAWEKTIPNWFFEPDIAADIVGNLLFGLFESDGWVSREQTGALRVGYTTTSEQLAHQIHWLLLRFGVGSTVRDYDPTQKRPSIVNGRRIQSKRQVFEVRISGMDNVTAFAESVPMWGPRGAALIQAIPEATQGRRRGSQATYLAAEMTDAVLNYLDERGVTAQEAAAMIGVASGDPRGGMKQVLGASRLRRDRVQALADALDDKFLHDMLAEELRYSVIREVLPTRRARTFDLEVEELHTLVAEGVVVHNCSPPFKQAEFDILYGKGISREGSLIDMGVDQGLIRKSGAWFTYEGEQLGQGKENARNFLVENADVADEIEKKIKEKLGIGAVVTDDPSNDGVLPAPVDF
Mtb H37Rv = M. tuberculosis H37Rv growth inhibitors, H37Rv strain (AID 1626) | M. tuberculosis H37Rv growth inhibition; higher % means a stronger effect | inhibition, % at 10 µM, or IC50 in µM where a hit was titrated | hit rate 0.95% among 220,000;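 active = confirmed in a dose series; inconclusive = inhibition above 80% but not taken into the dose series; inactive = below 80% or under 30% at every dose of the series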;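 also: bacteria incubated seven days before Alamar blue readout; 0% = bacteria only wells and 100% = bacteria with antibiotic wells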
Arbovirus inh = antivirals against arbovirus infection, primary screen, cell-based, full library, 10K replicate subset. arbovirus infection cell-based antiviral screen. inhibition, % at 10 µM. hit rate 0.37% among 200,000. AID 1251, 2008;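 active = inhibition from about 30%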;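 also: bluetongue infection of BSR cells; cell survival read as ATP light after 72 h; 0% = infected wells without compound and 100% = uninfected wells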
Mtb bLac sens = beta-lactam sensitization of Mtb H37Rv, H37Rv | M. tuberculosis H37Rv growth with meropenem, percent inhibition; hits of this screen are not shown here | inhibition, % at 25 µM | hit rate 0.27% among 330,000;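 active = about 74% or more and at least 40 points above the plate without the antibiotic, then above 30% in a dose series; inconclusive = first-round hits that could not be retested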;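 also: growth measured after seven days incubation then overnight dye step; 0% = bacteria only wells and 100% = bacteria with antibiotic; twin plates without the antibiotic show which effects depend on it; some results filed as inactive read as strong as hits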
YopH inh = YopH tyrosine phosphatase inhibitors, primary screen, biochemical, fluorescence Ex485/Em525; hit rate 0.16% among 140,000; inhibition, %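 (about 10 µM by stock and volumes)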;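 active = inhibition of 50% or more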;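 also: controls were vehicle for no effect and minimum signal wells for full effect; inactives centre near -20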
Arbovirus inh repeat = second read-out of Arbovirus inh, no call of its own (marks repeat the call); inhibition, %; measured here: 10K subset replicate screen; many hits read low in the repeat;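 first of two repeat runs on a subset; 0% = infected and 100% = uninfected wells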
Numbers without * were called inactive; ? = inconclusive; · = not tested or not shown. These rows are one share of the data. The share of hits here may be higher or lower than overall.

A first look, 10 compounds:
SMILES | RecA splice inh | Mtb H37Rv | Arbovirus inh | Mtb bLac sens | YopH inh | others
O=C(Nc1nncs1)C(Sc1ccccc1)c1ccccc1 (stereo not drawn) | 1.8 | 3.9% | 2.8 | -8.0 | -26.3
C/C(Cn1nc([N+](=O)[O-])cc1C)=N\NC(=O)COc1ccccc1[N+](=O)[O-] | -1.6 | 0.1% | 7.4 | -2.7 | -44.2
CN(CC(=O)Nc1cccc(F)c1)C(=O)/C=C/c1ccc2ccccc2n1 | 1.3 | · | · | -5.0 | ·
CC12CCC(C/C1=N\N=C1\NC(=O)/C(=C\c3ccc(Cl)cc3)S1)C2(C)C (stereo not drawn) | -1.9 | ? | -36.7 | 86.8 | -17.9
Cn1cnc2c(oc3ccccc32)c1=O | -1.1 | · | · | -0.9 | ·
COc1cc2cc(C(=O)N/N=C/c3ccccc3Cl)[nH]c2cc1OC | -1.6 | · | · | 0.2 | ·
N=c1oc2ccc(Br)cc2cc1C(=O)NCc1ccccc1 | 2.8 | · | · | 83.7 | ·
CCOc1ccccc1Nc1ncnc2c1cnn2-c1ccccc1 | 0.5 | 7.2% | 1.2 | 0.1 | · | Arbovirus inh repeat=2.0
O=C(NCc1ccccn1)C1CCCN(S(=O)(=O)c2cccc3nsnc23)C1 (stereo not drawn) | 0.0 | -12.3% | 14.4 | -12.3 | -42.8
COc1ccc(NC(=S)N2CCCC2)cc1 | -2.8 | 5.6% | -4.5 | -8.0 | -17.4

The whole of this part (from the top)
SMILES | RecA splice inh | Mtb H37Rv | Arbovirus inh | Mtb bLac sens | YopH inh | others
O=C(Nc1nncs1)C(Sc1ccccc1)c1ccccc1 (stereo not drawn) | 1.8 | 3.9% | 2.8 | -8.0 | -26.3
C/C(Cn1nc([N+](=O)[O-])cc1C)=N\NC(=O)COc1ccccc1[N+](=O)[O-] | -1.6 | 0.1% | 7.4 | -2.7 | -44.2
CN(CC(=O)Nc1cccc(F)c1)C(=O)/C=C/c1ccc2ccccc2n1 | 1.3 | · | · | -5.0 | ·
CC12CCC(C/C1=N\N=C1\NC(=O)/C(=C\c3ccc(Cl)cc3)S1)C2(C)C (stereo not drawn) | -1.9 | ? | -36.7 | 86.8 | -17.9
Cn1cnc2c(oc3ccccc32)c1=O | -1.1 | · | · | -0.9 | ·
COc1cc2cc(C(=O)N/N=C/c3ccccc3Cl)[nH]c2cc1OC | -1.6 | · | · | 0.2 | ·
N=c1oc2ccc(Br)cc2cc1C(=O)NCc1ccccc1 | 2.8 | · | · | 83.7 | ·
CCOc1ccccc1Nc1ncnc2c1cnn2-c1ccccc1 | 0.5 | 7.2% | 1.2 | 0.1 | · | Arbovirus inh repeat=2.0
O=C(NCc1ccccn1)C1CCCN(S(=O)(=O)c2cccc3nsnc23)C1 (stereo not drawn) | 0.0 | -12.3% | 14.4 | -12.3 | -42.8
COc1ccc(NC(=S)N2CCCC2)cc1 | -2.8 | 5.6% | -4.5 | -8.0 | -17.4
CC1=C(C(=O)OC(C)(C)C)C(c2ccco2)C(C#N)=C(N)O1 (stereo not drawn) | -55.7 | -3.2% | 5.5 | -2.2 | 13.8
O=C(NCC1CCCO1)c1c(O)c2cccc3c2n(c1=O)CCC3 (stereo not drawn) | 2.8 | 1.4% | 11.1 | -6.2 | -42.6
O=C(/C=C/c1ccccc1)Oc1ccc(C(=S)N2CCOCC2)cc1 | -2.0 | -7.9% | -2.0 | 2.5 | ·
O=C(NCc1nc2ccccc2[nH]1)C1=C[C@H](c2ccc(Br)cc2)C[C@H](OCc2ccc(CO)cc2)O1 | 8.4 | 4.7% | -8.6 | 66.4 | ·
NS(=O)(=O)c1ccc(S(=O)(=O)N2CCCC2)cc1 | 0.6 | -5.4% | 0.1 | -1.9 | -11.2
COc1cnc(-c2ccccc2)nc1OC | -3.7 | 1.8% | 3.9 | 7.4 | ·
CCOc1ccccc1NC(=O)NC(=O)N(C)S(C)(=O)=O | 5.8 | 6.0% | -1.9 | -2.4 | ·
Cc1ccc(C)c(Oc2cc(NN3CCCCC3)c([N+](=O)[O-])cc2[N+](=O)[O-])c1 | 2.0 | · | · | -3.8 | ·
CC(=O)N1CCC(C(=O)c2ccc(Cl)cc2)CC1 | · | -2.2% | -2.9 | -8.8 | -13.5
CCCn1c(SCC#N)nc2c(c1=O)C1(CCCC1)Cc1ccccc1-2 | 10.0 | -1.5% | -7.7 | 5.0 | -17.2
Cc1ccc(C(=O)CCC(=O)Nc2ncccc2O)cc1 | 0.1 | · | · | -2.8 | ·
Cc1ccc(NC(=O)c2ccc3nc[nH]c3c2)nc1 | 5.4 | · | · | 1.0 | ·
O=C(Nc1nccs1)c1ccc(CSc2nnnn2-c2ccccc2)cc1 | 3.3 | 36.1% | -21.5 | 67.1 | -147.8
CC1C(=O)N2CCCc3cc(NC(=O)C(=O)NCCc4ccc(F)cc4)cc1c32 (stereo not drawn) | -0.2 | · | · | -8.2 | ·
CCCNc1ccc(S(=O)(=O)N(C(C)C)C(C)C)cn1 | -1.3 | 0.6% | -2.7 | 5.4 | -23.2
O=c1oc2ccccc2cc1NCc1ccccc1O | 7.3 | -0.7% | 7.8 | -1.5 | -22.4 | Arbovirus inh repeat=7.8
O=C(N/N=C/c1ccco1)c1ccc(Br)o1 | 0.0 | 0.4% | -1.2 | 0.7 | -24.4
COc1ccc(Nc2nc(NCc3ccco3)nc(N)c2[N+](=O)[O-])cc1 | -2.9 | -9.7% | · | -1.4 | ·
CCOC(=O)N1CCC(=NNc2nc3ccccc3s2)CC1 | · | 1.2% | · | 100.0 | ·
Cc1c(Cl)ccc(S(=O)(=O)Nc2cccnc2)c1Cl | 3.2 | · | · | -12.8 | ·
CCc1ccc(NC(=O)CS(=O)CC(=O)N2CCN(c3ccccc3F)CC2)cc1 (stereo not drawn) | 1.1 | · | · | -7.6 | ·
O=C(Nc1ccccc1N1CCCC1)C1CC(=O)N(Cc2ccccc2)C1 (stereo not drawn) | 1.0 | · | · | -11.9 | ·
O=C(CSc1ncccc1C(=O)O)c1cccc(C(F)(F)F)c1 | 1.8 | -7.4% | 5.4 | -3.0 | ·
Cc1cccc(-c2nc(CN3CCCC(C(=O)NC4CCCCC4)C3)c(C)o2)c1 (stereo not drawn) | 2.9 | -4.5% | -1.2 | 45.0 | -30.4
CSC1=N/C(=C\c2ccc(C)o2)C(=O)S1 | -4.1 | -5.0% | -5.0 | 0.0 | -32.4 | Arbovirus inh repeat=-0.8
COc1ccc(/C=N/NC(=O)c2cccc([N+](=O)[O-])c2)cc1OC | -2.9 | 2.3% | -0.3 | 8.9 | ·
C=CCn1c(=N)n(CC(=O)c2ccc(Br)s2)c2ccccc21 | 1.3 | 5.7% | -4.5 | -10.2 | -4.9
Cc1ccc(N2CC(c3nc4ccccc4[nH]3)CC2=O)c(C)c1 (stereo not drawn) | 4.1 | -4.6% | -2.2 | -0.2 | -20.2 | Arbovirus inh repeat=1.1
COc1ccc(NC(=O)C2CCCN2C(=O)OCc2ccccc2)cc1 (stereo not drawn) | -4.1 | 1.8% | · | -0.3 | ·
COc1ccc(CNC(=O)C(c2cccc(C)c2)N(C(=O)c2csnn2)C2CC2)cc1 (stereo not drawn) | 1.7 | · | · | -2.2 | ·
CC(C)CCNC(=O)C(c1ccc(O)cc1)N(Cc1ccco1)C(=O)CCC(=O)Nc1nccs1 (stereo not drawn) | -0.3 | · | · | -1.2 | ·
CN1CCN(C2=Nc3cc(Cl)ccc3Nc3ccccc32)CC1 | -0.6 | -5.9% | 4.8 | 8.9 | -56.5
Cc1ccc(C(=O)c2c3ccc(C(F)(F)F)cc3[n+]([O-])n2CCC(N)=O)cc1 | -0.9 | · | · | 2.1 | ·
COc1ccc(NC(=O)c2cnc(C)cn2)c2ncccc12 | -2.1 | 2.8% | -6.7 | · | 7.1
CC(C)(C)c1cc(C(=O)N2CCc3ccccc3C2)ccn1 | -1.5 | · | · | -3.0 | ·
O=C(CSc1ccc(-c2ccc(Br)cc2)nn1)NCC1CCCO1 (stereo not drawn) | 0.4 | · | · | -2.7 | ·
CCC(CC)C(=O)c1c[nH]c(C(=O)NCc2ccccc2)c1 | 0.0 | · | · | 2.0 | ·
CCOC(=O)c1cc(C(C)=O)c(=O)n(C)c1N | 0.3 | -10.6% | 7.3 | -2.4 | -45.4
CC(=O)Oc1oc(-c2ccccc2)nc1C=Nc1ccc(N(C)C)cc1 | · | -0.1% | · | 45.8 | ·
COc1ccc(CC(NC(C)=O)C(=O)NC2CCN(S(=O)(=O)c3cccc4ccccc34)CC2)cc1OC (stereo not drawn) | 1.6 | -3.9% | 0.7 | 3.0 | 8.3
Cc1nn(C)cc1C(=O)Nc1ccccc1Br | 1.4 | -3.0% | -1.5 | -3.6 | -16.1
Cc1cccc(Nc2nc(N)nc(CSc3nccn3C)n2)c1 | -4.6 | -2.1% | 15.5 | -1.0 | -3.7
O=C(N/N=C/c1cccnc1)c1ccc(NC(=O)C(c2ccccc2)c2ccccc2)cc1 | -4.1 | -3.9% | -5.3 | -0.1 | -25.8
COc1ccc(Cl)cc1NC(=O)[C@@]1(CC(=O)O)CC(/C=C/c2ccccc2)=NO1 | 3.1 | · | · | -3.5 | ·
Oc1ccccc1-c1n[nH]c(=S)n1Cc1ccco1 | -1.3 | 6.3% | 5.8 | 2.8 | -31.9
CCOC(=O)C1CCN(C(=O)CCc2nc3sc4c(c3c(=O)[nH]2)CCCC4)CC1 | -4.1 | · | · | -6.5 | ·
Cc1ccc(NC(=O)c2cccc(S(=O)(=O)N3CCc4ccccc4C3)c2)nc1 | -4.0 | · | · | -12.2 | ·
Cc1nc(C(F)(F)F)ccc1C(=O)N1CCCCC1 | -0.2 | -19.7% | · | -4.5 | ·
COc1ccc2c(c1)C(=O)CC(O)(C(F)F)O2 (stereo not drawn) | -0.6 | -6.5% | · | -2.5 | ·
COc1ccc(NC(=O)CCNS(=O)(=O)c2cccc3nonc23)cc1Cl | -0.3 | · | · | 3.9 | ·
Remaining list, next part.
SMILES | RecA splice inh | Mtb H37Rv | Arbovirus inh | Mtb bLac sens | YopH inh | others
O=C(N/N=C/c1ccc(Cl)c(Cl)c1)c1ccc2nc[nH]c2c1 | 1.2 | · | · | 2.4 | ·
CCn1c(CSc2ncccn2)nnc1SCC(=O)N1CCCCC1 | -0.7 | -2.8% | -2.3 | 4.5 | ·
c1ccc2c(c1)nc1n2CCN1CCN1CCCC1 | 0.6 | · | · | -12.2 | ·
COc1ccc(CONc2ncnc3nonc23)cc1[N+](=O)[O-] | -3.2 | 10.1% | -2.2 | 1.8 | ·
COC(=O)CCC(=O)OC1(C)C(=O)C2=CN(C3CC3)C(c3ccc(OC)cc3)=CC2=C(Br)C1=O (stereo not drawn) | -0.5 | -1.9% | · | 78.0 | ·
Cc1ccc(S(=O)(=O)NCc2cccnc2)c(C)c1 | -3.9 | · | · | 2.1 | ·
Cc1ccc(-c2nc(CN3CCCCC3)cc(CN3CCCCC3)c2O)cc1 | 2.2 | -7.7% | 17.5 | 1.2 | ·
Cc1noc(C(=O)Nc2cccc(O)c2)c1Cl | -1.5 | -6.2% | · | -6.6 | ·
O=C(Cc1ccc(Br)cc1)N1CCCCCC1 | 2.4 | 7.3% | 7.5 | -3.6 | 3.3
CC(=O)N1CCc2cc(S(=O)(=O)NCCC3=CCCCC3)ccc21 | -1.4 | · | · | 0.9 | -49.2
O=C(NC1CC2CCCC(C1)N2C(=O)Nc1ccccc1Cl)C1CC1 (stereo not drawn) | -1.3 | · | · | 4.8 | ·
Cc1nc2ccccc2nc1N/N=C/c1ccc(O)cc1O | 32.0* | 5.8% | · | 4.1 | ·
COCCC(=O)N1CCC(Oc2ccc(C(=O)N3CCCCCCC3)cc2)CC1 | 1.4 | · | · | -9.9 | ·
CCC(=O)N1CCc2cc(S(=O)(=O)N(C)c3ccc(OC)cc3OC)ccc21 | 1.3 | · | · | -3.7 | ·
O=C(NCCc1c[nH]c2ccccc12)Nc1ccccc1 | -0.1 | -7.0% | -2.4 | 0.1 | -43.0
O=c1[nH]nc(CSCc2ccccc2Cl)[nH]1 | 0.1 | -6.9% | -4.9 | 0.0 | -16.0
c1ccc(-c2nnc(CN3CCC4(CC3)OCCO4)o2)cc1 | 0.1 | -0.7% | -4.7 | 1.1 | -7.8
CCC(=O)Nc1sc2c(c1C(=O)N(C)C)CCCCC2 | -1.5 | 1.9% | 0.2 | -5.4 | -25.7
Cc1cc(C)nc(N2CCC(C(=O)Nc3ccc4c(c3)OCO4)CC2)n1 | · | 4.3% | -14.0 | 2.3 | -4.2
